Shh pathway inh – blocks Sonic Hedgehog signaling; Shh-LIGHT2 Gli-luciferase reporter, 30 h; inhibition, % (concentration not given with the values); 2.1% of 22,000 active; AID 2313;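 active = replicate mean of 65% or more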;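 also: pathway switched on by Shh-conditioned medium diluted 1 in 25 in low serum; 100 nL library stock added to about 40 µL; 0% = median of neutral wells and 100% = positive control level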
MITF inhib – blocks MITF activity; TRPM1 promoter luciferase, luminescence, 24 h; inhibition, % (no concentration beside the values); 0.28% of 37,000 active; AID 2240;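 active = most replicates at 85% or more, or half of them and the mean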;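 also: human melanocyte line stably carrying TRPM1 promoter luciferase reporter; 0% = vehicle wells and 100% = a positive control; the first replicate is given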
PD-1 reversal – reversal of PD-1 mediated T-cell inhibition; primary human CD4 T cells, PD-L1 beads, CellTiter-Glo 96 h; activation, % (concentration not given with the values); 29,000 tested, under 10 active; AID 2316;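 active = replicate mean of 50% or more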;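 also: 0% = median vehicle wells and 100% = positive control; 100 nL library stock added to about 50 µL; numbers are from one replicate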
YB-1 expr inh – YB-1 expression inhibition; AID 434959; 0.37% of 30,000 active; delta delta Cp (YB-1 minus CDIP) (concentration not given with the values); U2OS, qRT-PCR YB-1 vs CDIP delta delta Cp, 16 h; active compounds read high; zero = DMSO, each unit about twofold;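 active = delta delta Cp rounded down to an integer at or above 3, about 3 SD of DMSO wells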;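 also: higher means less YB-1 transcript or more CDIP transcript relative to DMSO; stock transfer was 100 nL into about 100 µL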
* marks the source's active call; other numbers are inactive results; / = no result given. A portion of the library (hit frequency here may not be typical).

SMILES	Shh pathway inh	MITF inhib	PD-1 reversal	YB-1 expr inh
C[C@@H]1CN([C@H](C)CO)C(=O)c2cc(NC(=O)Cc3ccccc3)ccc2O[C@H]1CN(C)Cc1ccncc1	/	4	-0.3	-0.051
C[C@@H]1CN([C@@H](C)CO)C(=O)c2cc(NC(=O)CCCN(C)C)ccc2O[C@H]1CN(C)S(C)(=O)=O	-2	10	0.1	0.38
Cc1noc(C)c1S(=O)(=O)Nc1ccc2c(c1)C(=O)N([C@@H](C)CO)C[C@@H](C)[C@@H](CN(C)Cc1ccc(Cl)c(Cl)c1)O2	25	-5	-0.2	-0.23
Cc1nnc(SCc2cc(=O)[nH]c(Nc3nc(C)c4cccc(C)c4n3)n2)s1	/	-10	-1.4	/
O=C(CSCc1cc(=O)[nH][nH]1)Nc1ccc(F)cc1	/	4	0.7	/
C[C@H](CO)N1C[C@H](C)[C@@H](CN(C)Cc2ccncc2)Oc2c(NC(=O)CCCCCC(=O)Nc3ccccc3N)cccc2C1=O	/	-18	1.0	0.2
C[C@H](CO)N1C[C@H](C)[C@@H](CN(C)Cc2ccc3c(c2)OCO3)Oc2ccc(NC(=O)CCCN(C)C)cc2C1=O	-13	-4	0.8	-0.4
C[C@H]1CN([C@@H](C)CO)C(=O)c2cc(NC(=O)Nc3ccc(C(F)(F)F)cc3)ccc2O[C@H]1CN(C)S(=O)(=O)c1ccc(F)cc1	/	-3	1.5	0.19
COc1cc(/C(C)=C/C(C)=C\C(=O)O)oc(=O)c1C	-10	-26	1.6	-0.49
Cc1noc(C)c1NC(=O)Nc1ccc2c(c1)CC(=O)N([C@H](C)CO)C[C@H](C)[C@H](CN(C)C(=O)NC(C)C)O2	-5	-9	/	-0.24

The list goes on; the last five above are carried over.
SMILES	Shh pathway inh	MITF inhib	PD-1 reversal	YB-1 expr inh
C[C@H](CO)N1C[C@H](C)[C@@H](CN(C)Cc2ccncc2)Oc2c(NC(=O)CCCCCC(=O)Nc3ccccc3N)cccc2C1=O	/	-18	1.0	0.2
C[C@H](CO)N1C[C@H](C)[C@@H](CN(C)Cc2ccc3c(c2)OCO3)Oc2ccc(NC(=O)CCCN(C)C)cc2C1=O	-13	-4	0.8	-0.4
C[C@H]1CN([C@@H](C)CO)C(=O)c2cc(NC(=O)Nc3ccc(C(F)(F)F)cc3)ccc2O[C@H]1CN(C)S(=O)(=O)c1ccc(F)cc1	/	-3	1.5	0.19
COc1cc(/C(C)=C/C(C)=C\C(=O)O)oc(=O)c1C	-10	-26	1.6	-0.49
Cc1noc(C)c1NC(=O)Nc1ccc2c(c1)CC(=O)N([C@H](C)CO)C[C@H](C)[C@H](CN(C)C(=O)NC(C)C)O2	-5	-9	/	-0.24
COc1ccc(-c2cc(C)nc(SCC(=O)c3cccc([N+](=O)[O-])c3)n2)cc1	/	-13	-2.2	/
Cc1ccc(S(=O)(=O)Nc2ccc3c(c2)C(=O)N([C@H](C)CO)C[C@H](C)[C@H](CN(C)C(=O)Nc2cccc4ccccc24)O3)cc1	-28	-4	-1.3	-0.1
C[C@H]1CN([C@@H](C)CO)C(=O)c2cccc(NS(C)(=O)=O)c2O[C@H]1CN(C)CC1CC1	-7	1	1.0	0.37
CNC[C@@H]1Oc2ccc(NC(=O)Cc3cn(C)c4ccccc34)cc2C(=O)N([C@@H](C)CO)C[C@@H]1C	23	10	1.0	0.28
Cc1noc(C)c1S(=O)(=O)Nc1ccc2c(c1)CC(=O)N([C@H](C)CO)C[C@@H](C)[C@@H](CN(C)C(=O)Nc1ccc(C(F)(F)F)cc1)O2	-6	-1	/	-0.36
CC(C)NC(=O)Nc1cccc2c1O[C@@H](CN(C)S(=O)(=O)c1cccs1)[C@@H](C)CN([C@@H](C)CO)C2=O	-3	-1	/	0.25
C[C@@H]1CN([C@H](C)CO)C(=O)c2cccc(NC(=O)c3ccncc3)c2O[C@@H]1CN(C)C(=O)Nc1ccc(F)cc1	-21	-14	/	0.093
O=C1/C(=C/c2ccc3ccccc3c2)COc2ccccc21	-81	-48	-20	-0.22
Cc1ccc(NC(=O)CSc2nnc(-c3ccco3)n2C)c(Br)c1	/	-1	1.0	/
COC(=O)c1cccc(NC(=O)CN(c2ccc(Cl)c(C(F)(F)F)c2)S(C)(=O)=O)c1C	/	-22	-0.9	/
O=S(=O)(c1ccc(Br)cc1)c1nc(-c2ccc(F)cc2)oc1NCc1cccnc1	/	6	-1.2	/
Cc1ccc(S(=O)(=O)N(C)C[C@@H]2Oc3ccc(NC(=O)Nc4ccc(F)cc4)cc3CC(=O)N([C@H](C)CO)C[C@H]2C)cc1	-31	-2	-0.2	-0.072
C[C@@H]1CN([C@H](C)CO)C(=O)c2cccc(NS(=O)(=O)c3ccc(Cl)cc3)c2O[C@@H]1CN(C)C(=O)Nc1cccc2ccccc12	43	39	0.7	0.0022
C[C@H](CO)N1C[C@H](C)[C@@H](CN(C)Cc2ccc(Oc3ccccc3)cc2)Oc2ccc(NC(=O)Nc3ccc(F)cc3)cc2C1=O	19	11	0.1	-0.091
OC(Cc1cccnc1)(c1ccccc1)c1ccccc1	71*	27	-0.7	-0.7
C[C@@H]1CN([C@@H](C)CO)C(=O)c2cc(NC(=O)c3ccncc3)ccc2O[C@@H]1CN(C)S(=O)(=O)c1ccccc1	-1	-3	0.8	-0.54
Cc1noc(C)c1S(=O)(=O)Nc1cccc2c1O[C@@H](CN(C)Cc1ccncc1)[C@@H](C)CN([C@H](C)CO)C2=O	-30	1	-0.2	0.065
O=C(COc1ccc(Br)cc1)NCCN1CCOCC1	/	-13	0.9	/
COc1ccc(S(=O)(=O)Nc2ccc3c(c2)C(=O)N([C@@H](C)CO)C[C@@H](C)[C@H](CN(C)C(=O)Nc2ccc(F)cc2)O3)cc1	-7	5	1.1	0.37
CC1=CC(C/C(C)=C/COc2ccc3ccc(=O)oc3c2)OC1=O (stereo not drawn)	-29	-18	-0.8	-0.5
C[C@@H]1CN([C@H](C)CO)C(=O)Cc2cc(NC(=O)Nc3ccc(C(F)(F)F)cc3)ccc2O[C@H]1CN(C)Cc1ccc(Oc2ccccc2)cc1	/	-2	/	-0.083
C[C@H](CO)N1C[C@H](C)[C@H](CN(C)Cc2ccc(C(F)(F)F)cc2)Oc2ccc(NS(C)(=O)=O)cc2CC1=O	-11	-7	-2.2	-0.23
CC(C)(C)Nc1cccccc1=NCc1ccccc1	/	9	-3.5	0.36
Cc1sc(NC(=O)COc2ccccc2C(C)C)c(C(N)=O)c1C	/	15	-3.0	/
c1ccc(CNc2ncnc3scc(C4COc5ccccc5O4)c23)cc1 (stereo not drawn)	/	4	0.8	/
C[C@@H]1CN([C@H](C)CO)C(=O)c2cc(NS(=O)(=O)c3ccccc3)ccc2O[C@H]1CN(C)Cc1ccc(C(F)(F)F)cc1	-26	-17	-1.8	-0.12
Cc1ccc(NC(=O)C(=O)NCCc2c[nH]c3ccccc23)cc1Cl	/	25	-2.0	/
COc1ccc(CN(C)C[C@H]2Oc3ccc(NS(=O)(=O)c4ccccc4)cc3C(=O)N([C@H](C)CO)C[C@H]2C)cc1	6	10	0.3	-0.24
C[C@H]1CN([C@@H](C)CO)C(=O)c2cc(NC(=O)CCCCCC(=O)Nc3ccccc3N)ccc2O[C@@H]1CN(C)S(C)(=O)=O	/	-7	1.9	-0.15
C[C@H](CO)N1C[C@H](C)[C@H](CN(C)CC2CC2)Oc2ccc(NC(=O)CCC(F)(F)F)cc2C1=O	-18	0	-0.1	-0.19

For convenience, 2 of the compounds above.
SMILES	Shh pathway inh	MITF inhib	PD-1 reversal	YB-1 expr inh
CC(C)(C)Nc1cccccc1=NCc1ccccc1	/	9	-3.5	0.36
Cc1sc(NC(=O)COc2ccccc2C(C)C)c(C(N)=O)c1C	/	15	-3.0	/

Additional compounds
SMILES	Shh pathway inh	MITF inhib	PD-1 reversal	YB-1 expr inh
C[C@@H]1CN([C@@H](C)CO)C(=O)c2cc(NS(=O)(=O)c3ccc(Cl)cc3)ccc2O[C@H]1CN(C)C(=O)Nc1cccc2ccccc12	-2	-1	-0.5	0.23
O=C(CC1c2ccccc2Oc2ccccc21)Nc1ccccc1C(=O)N1CCCCC1	/	1	0.1	/
C[C@@H]1CN([C@H](C)CO)C(=O)c2cccc(NS(=O)(=O)c3ccccc3)c2O[C@H]1CN(C)S(=O)(=O)c1ccc(F)cc1	11	-5	-1.8	0.23
O=C(O)CSc1nnc(-c2ccncc2)n1-c1ccc(Cl)cc1	/	-5	1.3	/
COc1cc(NC(=O)COc2cccc(C)c2C)ccc1-c1cc2ccccc2oc1=O	/	7	-1.2	/
CC1CN(c2nc3ccccc3nc2SCC(=O)NCCc2ccccc2)CC(C)O1 (stereo not drawn)	-5	12	-1.7	-0.46
C[C@H](CO)N1C[C@H](C)[C@@H](CN(C)C(=O)NC2CCCCC2)Oc2c(NC(=O)C3CC3)cccc2C1=O	-40	-8	0.8	0.23
COc1ccc2c(c1)O[C@@H]1COc3cc4c(cc3[C@]1(O)C2=O)OCO4	-14	-14	-0.9	0.054
CNC[C@H]1Oc2ccc(NS(=O)(=O)c3ccc(Cl)cc3)cc2C(=O)N([C@H](C)CO)C[C@@H]1C	-24	-6	-0.3	-0.16
COc1ccc(S(=O)(=O)Nc2ccc3c(c2)C(=O)N([C@@H](C)CO)C[C@@H](C)[C@H](CN(C)S(=O)(=O)c2ccc(C)cc2)O3)cc1	-6	-2	1.3	-0.25
CC(C)NC(=O)N(C)C[C@H]1Oc2ccc(NC(=O)c3ccncc3)cc2C(=O)N([C@@H](C)CO)C[C@@H]1C	-22	-12	1.0	0.17
CC1OC(OCC2(C)C=C3C4CCC5C6(C)CCC(O)C(C)(COC7OC(CO)C(O)C(O)C7O)C6CCC5(C)C4(C)CCC3(C(=O)O)CC2)C(O)C(O)C1O (stereo not drawn)	-2	-11	2.7	0.13
COc1ccc(NC(=O)Nc2ccc3c(c2)CC(=O)N([C@H](C)CO)C[C@@H](C)[C@@H](CN(C)Cc2ccc(Cl)c(Cl)c2)O3)cc1	23	-1	-2.8	0.057
Cc1ccc(S(=O)(=O)Nc2ccc3c(c2)CC(=O)N([C@@H](C)CO)C[C@H](C)[C@H](CN(C)C(=O)Nc2ccc(C(F)(F)F)cc2)O3)cc1	4	0	0.0	0.15
COc1ccc(CN(C)C[C@@H]2Oc3ccc(NC(=O)Nc4ccc(C(F)(F)F)cc4)cc3CC(=O)N([C@@H](C)CO)C[C@@H]2C)cc1	3	5	/	-0.81
C[C@@H]1CN([C@@H](C)CO)C(=O)c2cc(NC(=O)Nc3ccc(C(F)(F)F)cc3)ccc2O[C@@H]1CN(C)Cc1ccc(Oc2ccccc2)cc1	/	27	-14	0.7
O=C(O)c1cc(O)c2c(c1)C(=O)c1cc(O)cc(O)c1C2=O	-7	-11	/	-0.26
CNC(=O)Nc1cc(C(F)(F)F)cc(C(F)(F)F)c1	29	18	0.3	0.058
O=C(O)c1cccc(CN2CCN(c3ccccc3)CC2)c1	-24	-1	-0.5	0.12
Cc1ccnc(NS(=O)(=O)c2ccc(NC(=O)c3cncc(Br)c3)cc2)n1	/	-6	3.0	/
C[C@@H]1CN([C@H](C)CO)C(=O)c2cc(NC(=O)CCC(F)(F)F)ccc2O[C@@H]1CN(C)Cc1ccc(C(F)(F)F)cc1	9	-6	0.9	-0.49
Cc1c(OC(=O)c2ccco2)ccc2c3c(c(=O)oc12)CCC3	3	-8	0.8	0.19
Cc1ccccc1-c1nnc(SCC(=O)Nc2ccc(Br)cc2F)n1C	/	9	0.3	/
COc1c(CC=C(C)C)cc(C2CC(=O)c3c(O)cc(O)cc3O2)cc1CC=C(C)C (stereo not drawn)	-8	34	-11	0.28
CC(C)CN1CC(C(=O)O)CC1=O (stereo not drawn)	-15	-7	0.4	0.27
Cc1ccc(S(=O)(=O)N(C)C[C@@H]2Oc3ccc(NC(=O)c4ccncc4)cc3CC(=O)N([C@H](C)CO)C[C@H]2C)cc1	19	-10	-0.1	-0.14
CNC[C@H]1Oc2ccc(NC(=O)CCN3CCOCC3)cc2C(=O)N([C@H](C)CO)C[C@H]1C	/	0	0.5	0.052
C[C@@H]1CN([C@@H](C)CO)C(=O)c2cccc(NC(=O)c3nc4ccccc4s3)c2O[C@H]1CN(C)S(=O)(=O)c1ccccc1	15	-9	-3.0	0.11
COc1ccc(S(=O)(=O)N(C)C[C@H]2Oc3c(NS(=O)(=O)c4cccs4)cccc3C(=O)N([C@@H](C)CO)C[C@H]2C)cc1	-2	-5	0.5	0.54
C[C@@H]1CCCCO[C@H](CN(C)S(=O)(=O)c2ccc(Cl)cc2)[C@@H](C)CN([C@H](C)CO)C(=O)c2cc(NS(=O)(=O)c3cccs3)ccc2O1	42	42	-2.3	-0.17
Cc1ccc(S(=O)(=O)N(C)C[C@H]2Oc3ccc(NS(=O)(=O)c4cn(C)cn4)cc3CC(=O)N([C@@H](C)CO)C[C@H]2C)cc1	4	-8	1.9	0.072
COc1ccc2nc(SCC(=O)NC3CCCCCC3)[nH]c2c1	/	14	-0.1	/
CCc1cc2c(=O)n(CC(=O)Nc3cc(OC)ccc3OC)cnc2s1	/	3	-1.2	/
O=c1c(Cc2ccc(Br)cc2)csc2ccccc12	-63	-42	0.3	-0.084
C[C@H]1CN([C@@H](C)CO)C(=O)c2cccc(NS(=O)(=O)c3cccs3)c2O[C@@H]1CN(C)CC1CCCCC1	7	1	/	-0.5
